Screening results deposited in PubChem BioAssay by National Center for Advancing Translational Sciences (NCATS).
VDR inhibitor = vitamin D3 receptor (human) inhibition | 400,000 compounds, 0.93% hits | VDR-SRC2-3 peptide fluorescence polarization, 2 h | Potency, µM, for inactives: max response, negative = inhibition, usual class: inhibitors | P11473; active = well fitted inhibition curve with a large enough effect; inconclusive = small, poorly fitted or top-dose-only effect, or another doubt; inactive = no such curve, though single readings can be large or run the other way; note: series mostly up to about 120 µM
Target sequence (P11473 whole entry, looked up): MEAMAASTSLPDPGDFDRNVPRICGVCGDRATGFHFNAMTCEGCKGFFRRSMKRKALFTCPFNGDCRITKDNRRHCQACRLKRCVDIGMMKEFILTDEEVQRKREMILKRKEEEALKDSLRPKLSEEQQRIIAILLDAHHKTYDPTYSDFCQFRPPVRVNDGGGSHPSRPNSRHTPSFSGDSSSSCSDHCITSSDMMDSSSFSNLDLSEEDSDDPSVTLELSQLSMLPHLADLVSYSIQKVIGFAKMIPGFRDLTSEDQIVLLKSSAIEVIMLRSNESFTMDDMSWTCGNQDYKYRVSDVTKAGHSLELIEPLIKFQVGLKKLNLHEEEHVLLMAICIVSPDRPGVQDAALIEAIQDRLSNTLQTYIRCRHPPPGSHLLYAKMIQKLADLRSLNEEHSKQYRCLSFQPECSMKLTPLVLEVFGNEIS
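Reagent solutions, kept cold and dark, are dispensed first; compounds are then pinned in at 23 nl, plates briefly spun, and incubated 2 h at ambient temperature. Inhibition of VDR–SRC2-3 peptide binding is read by fluorescence polarization.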
Active calls of the source: *; u = inconclusive; & = joins results of further samples. % is set by controls: 0 for no effect and ±100 for the full control effect; potency is the fitted concentration of half-maximal effect. A portion of the library; count on the stated rates, not on these rows.

SMILES	VDR inhibitor
Cc1c(C(=O)O)c(=S)sn1CCOc1ccccc1	6%
Cc1cccc(NC(=O)C2C3CCC4C(CCC32)C4(Cl)Cl)c1 (stereo not drawn)	-14%
CN=C(NC)SC1CC(=O)N(c2ccccc2)C1=O (stereo not drawn)	9%
CCN(C(=O)CSc1nnc(Nc2ccc(OC)cc2)s1)C1CCS(=O)(=O)C1 (stereo not drawn)	-1%
CSc1ccc(/C=C2\C(=N)N3N=C(CC(=O)N4CCOCC4)SC3=NC2=O)cc1	-3%
Cc1cc(C)cc(NC(=O)Cn2c(C)cc(C)c(C#N)c2=O)c1	2%
CCOc1ccc(OCC)c(NC(=O)Cn2nc(CC)n3c(cc4sccc43)c2=O)c1	-4%
Cc1ccc(Cl)cc1-n1ncc2c(NC3CCCCCC3)ncnc21	11%
CCOC(=O)c1ccc(NC(=O)Cn2cccc2)cc1	18%
Cc1cc(C)cc(NC(=S)NCc2cccnc2)c1	-15%
Cc1cc(N)cc(C)c1-c1c(Br)cc(N)cc1Br	4%
Cc1nnc(NC(=O)c2ccc3c(c2)C(=O)N(CCC(C)C)C3=O)s1	-9%
CCNC(=O)CC1SC(=Nc2ccc(Cl)cc2)N(CC)C1=O (stereo not drawn)	-9%
CC(=O)Nc1ccc(C(=O)COC(=O)C2CC2)c(F)c1	15%
CC1Cc2cc(-c3csc(NC(=O)Cc4ccccc4)n3)ccc2N1S(C)(=O)=O (stereo not drawn)	-9%
Cc1cc(C)c2oc(C(=O)Nc3c(C(=O)c4ccc(F)cc4)oc4ccccc34)cc(=O)c2c1	-1%
COc1ccc(CC(NC(C)=O)C(=O)NC2CCN(C(=O)C3CCCCC3)CC2)cc1OC (stereo not drawn)	3%
CCCCOc1ncnc2c1[nH]c1ccc(F)cc12	4%
COc1ccc2nc3oc(C(=O)N4CCN(c5ccccc5F)CC4)cc3cc2c1	4%
S=C(NCCCN1CCOCC1)NC1CC1	-21%
Cc1ccccc1C(=O)NNC(=O)/C=C\C(=O)O	-20%
CC1(C)CC(=O)c2cc(NC(=O)c3ccc(F)cc3)c(=O)oc2C1	-2%
CCOC(=O)C(NCc1ccccn1)(NC(=O)c1cccnc1)C(F)(F)F (stereo not drawn)	-3%
CC1(C)Cc2c(sc3nc4n(c(=N)c23)CCCCC4)CO1	6%
O=C(Nc1cccc(C(=O)Nc2ccc(S(=O)(=O)O)c3cc(S(=O)(=O)O)cc(S(=O)(=O)O)c23)c1)Nc1cccc(C(=O)Nc2ccc(S(=O)(=O)O)c3cc(S(=O)(=O)O)cc(S(=O)(=O)O)c23)c1	u
Cc1ccc(Cn2c(N)c(S(=O)(=O)c3cccs3)c3nc4ccccc4nc32)cc1	-10%
COc1ccc(/C=N/NC(=O)CNc2n[nH]c(=O)[nH]c2=O)cc1OC	-7%
COc1ccc(CNC(=O)CNC(c2ccccc2)c2ccccc2)cc1OC	8%
COc1ccc(N2CCN(S(=O)(=O)c3ccc(OC)c(C(=O)N4CCCC4)c3)CC2)cc1	-13%
Cc1cc2[nH]c(=O)c(=O)[nH]c2cc1S(=O)(=O)Nc1cccc(C)c1C	-23%
C/C=C(/C)C(=O)Nc1cccc(C2=NOC3(C2)C[C@H](C(N)=O)N(C(=O)c2ccccc2)C3)c1 (stereo partly drawn)	-7%
Cc1ccc(CNC(=O)c2ccc(-n3cccc3)cc2)cc1	-4%
O=C(CSc1n[nH]c(-c2ccccc2O)n1)N1CCCc2ccccc21	-2%
Cc1ccc2nc(NC(=O)CN3C(=O)NC4(CCCCC4)C3=O)sc2c1	-19%
Cc1ccc2c3c1C1(C(=O)N3C(C)(C)CC2C)C(C#N)=C(N)Oc2cc(O)ccc21 (stereo not drawn)	4%
Cc1cc(Br)cc(Br)c1OCC(=O)NNC(=O)CCC(=O)NCc1ccccc1	0%
Cn1ncn2c(=O)c3c(nc12)-c1ccccc1CC31CCCC1	-14%
Cc1ccc(C(=O)Nc2ccccc2C(=O)Nc2ccccn2)cc1Cl	-4%
O=C(NCc1ccco1)C(c1ccccc1F)N(Cc1cccnc1)C(=O)Cn1nnc2ccccc21 (stereo not drawn)	19%
COc1ccc(NC(=O)c2ccc(Br)o2)c([N+](=O)[O-])c1	-8%
CC(C)(Oc1ccc(Cl)cc1)C(=O)NC1CC1	-2%
Cc1ccc(C2CC(=O)Nc3cc4c(cc32)OCCO4)s1 (stereo not drawn)	4%
O=C(Cc1ccc(Cl)c(Cl)c1)Nc1ccc2[nH]c(=O)[nH]c2c1	12%
CCOC(=O)/C(=C/C=C1\Sc2cc(C)c(C)cc2N1CC)C(C)=O	11%
COc1ccc(-c2cc(C(=O)N(C)Cc3nc4ccccc4c(=O)[nH]3)c3ccccc3n2)cc1OC	-13%
COc1ccc(S(=O)(=O)NCC(=O)N(CC(=O)NCc2ccccc2)Cc2ccco2)cc1	-17%
CCOc1ccc(C(=O)NCC(=O)OCCCC(=O)c2ccc(F)cc2)cc1OCC	11%
Cc1nc2ncc(Br)cc2[nH]1	-20%
O=C(COc1ncnc2sccc12)Nc1cccc(S(=O)(=O)N2CCOCC2)c1	-1%
CSc1ncccc1C(=O)Nc1cccc(S(=O)(=O)N2CCCC2)c1	2%
The results go on.
SMILES	VDR inhibitor
Nc1ccc(-c2cc(-c3cccc(N)c3)nc(-c3ccccc3)n2)cc1	-9%
O=C(N/N=C/c1ccc([N+](=O)[O-])o1)c1cccc(S(=O)(=O)N2CCOCC2)c1	6%
COCCNC(=O)CSc1nc2ccccc2c(=O)n1CC1CCCO1 (stereo not drawn)	6%
Cc1ccccc1CSc1nnc(-c2ccccn2)n1C	0%
COc1ccc(-c2nnn(CC(=O)NC(=O)NC3CCCCC3)n2)cc1OC	6%
O=c1[nH][nH]c(=O)c2cc(N3CCCC3)ccc12	0%
Cc1c(C)c2c(c(C)c1O)CCC(C)(COc1ccc(Cc3sc(=O)[nH]c3O)cc1)O2 (stereo not drawn)	-10%
Cc1ccn2c(=O)c(C(=O)NCCN3CCOCC3)c(O)nc2c1	0%
Cc1nn(CC(=O)NCc2ccccc2Br)c(=O)c2cc3occc3n12	-14%
O=C(NCc1ccccc1)c1ccc(-c2ccc(F)cc2)o1	11%
COc1cc(C(=O)Nc2nc3ccc4nc(C)sc4c3s2)cc(OC)c1OC	4%
CCC(c1ccccc1)C(CC)c1cc(O)c(O)c(O)c1 (stereo not drawn)	u
C#CCOCCOCCOCCNc1nc(N2CCN(C(=O)CCCCCCCCCCNC(=O)Cn3cc(CCCCCN)nn3)CC2)nc(N2CCN(C(=O)CCCCCCCCCCNC(=O)[C@@H](CCC(=O)O)n3cc(CCCCCN)nn3)CC2)n1	-11%
COC(=O)C(=O)C/C(=N/Nc1ncnc2ccccc12)c1ccc(Cl)cc1	2%
Cc1sc(NC(=O)C2CCCCC2)c(C#N)c1-c1ccccc1	-12%
CCc1ccc(NC(=O)Cn2c(=O)n(-c3cccc(OC)c3)c(=O)c3c(C)c(C(=O)N(C)C)sc32)cc1	14%
C=CCCCCCCCCc1nc(SCC(C)=O)n[nH]1	-3%
CCN1C(=O)CC(N2CCC(Nc3ccc(OC)cc3)CC2)C1=O (stereo not drawn)	-1%
Cc1ccc(C(=O)CNc2cccc([N+](=O)[O-])c2)cc1	-11%
CC(C)CN(C(=O)COC(=O)CCCc1nc2ccccc2s1)c1c(N)n(Cc2ccccc2)c(=O)[nH]c1=O	-24%
O=C(Nc1ccccc1)C1CCN(S(=O)(=O)c2ccc3c(c2)OCCO3)CC1	-9%
Cc1ccc(CNC(=O)Cn2cccc2)cc1	-24%
COc1ccccc1C(=O)Nc1nnc(-c2ccc(Cl)cc2)o1	-7%
O=[N+]([O-])c1ccccc1S(=O)(=O)N1CCN(Cc2cc3c(cc2O)OCO3)CC1	u
COc1ccc2[nH]cc(CCNc3ncnc4ccc(-c5ccc6c(c5)OCO6)cc34)c2c1	-9%
O=C(COC(=O)c1ccccc1F)Nc1cc(S(=O)(=O)N2CCOCC2)ccc1N1CCCC1	-2%
CCCc1cc(=O)[nH]c2nnc(SCC(=O)Nc3ccc(NC(C)=O)cc3)n12	-20%
COc1cc2nc(N(C)CCCNC(=O)C3CCCO3)nc(N)c2cc1OC (stereo not drawn)	8%&-2%
Cc1nc2ccc(S(=O)(=O)NCC(=O)N(C)Cc3ccccc3)cc2s1	-7%
CC(C)C[C@@H](CO)N1CCN(Cc2ccccc2)CCC1=O	u
COc1ccccc1NC1=C(N2CCCCC2)C(=O)c2ccccc2C1=O	u
CCOC(=O)c1cc(S(=O)(=O)N(C)Cc2ccccc2)cn1C	11%
Cc1ccc(S(=O)(=O)Nc2cccc3ccccc23)cc1	15%
CC1=C(C(=O)Nc2ccc(Cl)cc2)C(C(C)C)n2nc(SCc3ccc(Cl)cc3)nc2N1 (stereo not drawn)	-9%
Cc1nc2c3ccccc3nc(NNC(=O)CCC(=O)NC(C)C)n2n1	3%
Cc1c(NC(=O)C(C)OC(=O)COc2ccc(C#N)cc2)c(=O)n(-c2ccccc2)n1C (stereo not drawn)	-3%
O=C(COC(=O)c1ccc(O)cc1)Nc1nccs1	2%
COc1cc(C)ccc1OCc1cc(C(=O)N2CCCCCCC2)no1	-6%
CCOc1ccccc1NC(=S)N1CCCc2ccccc21	6%
O=C(Cn1c(C(=O)c2ccccc2)nc2ccccc21)c1ccc(Cl)cc1	6%
CSc1ccc(CCNC(=O)CN2C(=O)COc3ccc(S(=O)(=O)N4CCCCCC4)cc32)cc1	-10%
COc1cc(C#Cc2c(-c3cncn3C)n(C)c3ccc(-c4ccc5cc[nH]c5c4)cc23)cc(OC)c1	10%
COc1ccc(C2=CC(c3ccccc3Cl)n3nc(-c4ccc(C)cc4)nc3N2)cc1 (stereo not drawn)	-14%
CCN(CC(=O)Nc1ccc(C(=O)OC)cc1)Cc1ccccc1	-1%
COc1ccc(NC(=O)N2CCn3c2nc2ccccc23)cc1	1%
O=C(c1cn(-c2ccccc2)nc1-c1ccccc1)N1CCN(c2ccccn2)CC1	0%
C=CCOC(=O)C(C#N)c1nc2ccccc2nc1N1CCC(C(=O)OCC)CC1 (stereo not drawn)	-12%
COc1cccc(CN2CCc3nc(N4CCN(c5ncccn5)CC4)ncc3C2)c1	9%
O=C(Cn1cnc2cc([N+](=O)[O-])ccc2c1=O)NCCc1ccc(F)cc1	-8%
Cn1c(=O)[nH]c(=O)c2c1nc(N1CCCC1)n2CC(O)COc1ccccc1 (stereo not drawn)	-7%

Fetched by structure from the list above (7):
SMILES	VDR inhibitor
Cc1cc(N)cc(C)c1-c1c(Br)cc(N)cc1Br	4%
O=C(NCc1ccco1)C(c1ccccc1F)N(Cc1cccnc1)C(=O)Cn1nnc2ccccc21 (stereo not drawn)	19%
Cc1cc2[nH]c(=O)c(=O)[nH]c2cc1S(=O)(=O)Nc1cccc(C)c1C	-23%
Cn1c(=O)[nH]c(=O)c2c1nc(N1CCCC1)n2CC(O)COc1ccccc1 (stereo not drawn)	-7%
CSc1ncccc1C(=O)Nc1cccc(S(=O)(=O)N2CCCC2)c1	2%
CC1(C)Cc2c(sc3nc4n(c(=N)c23)CCCCC4)CO1	6%
CCN(CC(=O)Nc1ccc(C(=O)OC)cc1)Cc1ccccc1	-1%

New compounds follow.
SMILES	VDR inhibitor
O=C1NC[C@H](c2ccccc2)N(CCc2cccc3ccccc23)C1=O	-9%
COC(=O)c1ccc(NC(=O)CN(c2ccc(C)cc2)S(=O)(=O)c2c(C)n[nH]c2C)cc1	-3%
CCCCCCn1nc(C(=O)N(CC(C)C)c2c(N)n(CCCC)c(=O)[nH]c2=O)c2ccccc2c1=O	-17%
CC1CN(C(=O)c2cc([N+](=O)[O-])cc([N+](=O)[O-])c2)CC(C)O1 (stereo not drawn)	9%
CC(=O)c1ccc(NS(=O)(=O)c2ccc3c(c2)N(C)CCO3)cc1	-5%
CCCNC(=O)c1c(C)cc(=O)oc1C	1%
Cc1ccc2c(c1)cc1c(=O)n(CC(=O)N(C)c3ccccc3)nc(C)n12	-18%&-2%
Cc1ccc(/C=N/Nc2ccc3c(C(F)(F)F)cc(C(F)(F)F)nc3n2)cc1	9%
CCS(=O)(=O)N1Cc2ccccc2CC1C(=O)NCc1cccc(OC)c1 (stereo not drawn)	-3%
CC1=C(C)/C(=N/OC(=O)c2cccc([N+](=O)[O-])c2)C=CC1=O	7%
CC(C)CCC(CC(C)O)c1n[nH]c(=S)n1-c1ccccc1 (stereo not drawn)	-1%
O=C(COC(=O)c1nc(Cl)ccc1Cl)NCCc1ccccc1	-11%
COc1cc(C2c3c(-c4ccccc4)n[nH]c3C(=O)N2c2ccccc2)ccc1O (stereo not drawn)	-23%
O=c1c(-c2ccccc2)c(O)nc2ccccn12	27%
C=C(C)c1cccc(C(C)(C)NC(=O)N(C)C2CCN(C)CC2)c1	16%
O=C(COC(=O)CNC(=O)c1ccc(Cl)cc1)Nc1ccc(Cl)cn1	-18%
O=C1CC(c2cccs2)CC(O)=C1C=NCCN1CCNCC1 (stereo not drawn)	5%
O=[N+]([O-])c1cc(Cl)ccc1NCCc1ccccn1	-9%
CNCC(O)CN1CCN(c2ccccc2OC)CC1 (stereo not drawn)	6%
O=[N+]([O-])c1ccc(N2CCOCC2)cc1NCCCO	27%
Cn1ncc2nc[nH]c(=O)c21	-8%
CCNC(=O)N1c2ccc(OCC)cc2C(C)=CC1(C)C	-6%

Part of the list above, in markdown:
| SMILES | VDR inhibitor |
| --- | --- |
| CNCC(O)CN1CCN(c2ccccc2OC)CC1 (stereo not drawn) | 6% |
| O=C1CC(c2cccs2)CC(O)=C1C=NCCN1CCNCC1 (stereo not drawn) | 5% |
| Cn1ncc2nc[nH]c(=O)c21 | -8% |
| O=[N+]([O-])c1ccc(N2CCOCC2)cc1NCCCO | 27% |
| C=C(C)c1cccc(C(C)(C)NC(=O)N(C)C2CCN(C)CC2)c1 | 16% |
| COc1cc(C2c3c(-c4ccccc4)n[nH]c3C(=O)N2c2ccccc2)ccc1O (stereo not drawn) | -23% |
| O=[N+]([O-])c1cc(Cl)ccc1NCCc1ccccn1 | -9% |
